Source: PubChem BioAssay (ICCB-Longwood Screening Facility, Harvard Medical School)
Ba CapD inh: Bacillus anthracis CapD inhibitors, primary screen, biochemical, fluorescence intensity | CapD gamma-glutamyltranspeptidase (Bacillus anthracis Ames Ancestor) | purified CapD enzyme, fluorescence intensity read-out; active compounds read low; some hits fall short of the stated cut | z-score (concentration not given with the values) | 140,000 compounds, 0.23% hits | AID 492967, 2010;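 active means z-score under -4 in either of two replicates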;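 further: stock transfer was 100 nL into about 40 µL; score is relative to mean and spread of the plate; one replicate is shown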
AID504770: growth inhibition of E. coli YBA685, primary screen, V. cholerae RctB inhibitors; z-score (test concentration not listed); 130,000 compounds, 0.27% hits; E. coli YBA685 rctB-dependent plasmid, OD600 growth, 3 h; active compounds read low;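 active means z-score under -2 on both plates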;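 further: wells of about 30 µL received 100 nL stock; score is relative to mean and SD of the test wells; the first replicate is given; strong numbers were not always called active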
An asterisk follows results filed as active; i = inactive; / = no result given.

SMILES | Ba CapD inh | AID504770
COc1ccc(Cn2c(CCC(=O)N3CCOCC3)nc3cccnc32)cc1 | 0.29 | 1.45
CN(C)n1cccc1/C=C(\C#N)S(=O)(=O)c1ccccn1 | 0.115 | 1.05
COc1ccc(Cl)cc1N/C=C(\C#N)c1nc(-c2ccccc2)cs1 | 0.285 | 1.65
O=C(Nc1cccc(Cl)c1)c1ccc(CS(=O)c2ccc(Cl)cc2)o1 (centres undefined) | 0.385 | -1
O=C(O)c1nn(CN2CCN(c3ccccc3F)CC2)c2ccccc12 | / | 0
CCc1nc(C)cc(CN(C)C)c1O | 56.5 | -0.9
CCNC(=O)c1ccccc1Sc1ccccc1CO | 0.51 | 1.7
O=C(c1cccc(Br)c1)N1N=C(C(F)(F)F)CC1(O)c1ccc(Cl)cc1 (centres undefined) | -0.32 | /
CCOC(=O)C(C(=O)Nc1nc2ccccc2s1)C1CCCCC1 (centres undefined) | -0.695 | -1.8
Cc1cc(C(=O)OC(C)C)ccc1-c1ccc(C=C(C#N)C#N)o1 | / | 0.1
O=S(=O)(NCCCN1CCOCC1)c1cc(Br)c(Br)s1 | -0.135 | -0.55
CN(CC(=O)N1CCN(c2ccccc2)CC1)S(=O)(=O)c1ccccc1 | -0.14 | 2.3
CCN(CC)S(=O)(=O)c1ccc(N(C(=O)Cn2nnc3ccccc32)C(C(=O)NC2CCCC2)c2ccco2)cc1 (centres undefined) | / | -0.4
O=C(c1cc(=O)n(-c2ccccc2)[nH]1)N1CCN(C/C=C/c2ccccc2)CC1 | 0.16 | /
Cn1nc(-c2ccc(Cl)cc2)c2cc(C(=O)Nc3ccc4c(c3)OCO4)sc21 | -0.245 | -0.6

As a working copy, some entries already given:
SMILES | Ba CapD inh | AID504770
O=S(=O)(NCCCN1CCOCC1)c1cc(Br)c(Br)s1 | -0.135 | -0.55
CN(CC(=O)N1CCN(c2ccccc2)CC1)S(=O)(=O)c1ccccc1 | -0.14 | 2.3
CCN(CC)S(=O)(=O)c1ccc(N(C(=O)Cn2nnc3ccccc32)C(C(=O)NC2CCCC2)c2ccco2)cc1 (centres undefined) | / | -0.4
O=C(c1cc(=O)n(-c2ccccc2)[nH]1)N1CCN(C/C=C/c2ccccc2)CC1 | 0.16 | /
Cn1nc(-c2ccc(Cl)cc2)c2cc(C(=O)Nc3ccc4c(c3)OCO4)sc21 | -0.245 | -0.6

New compounds follow.
SMILES | Ba CapD inh | AID504770
CS(=O)(=O)/C(C#N)=C/c1c(-c2ccccc2)nc2n1CCS2 | 0.495 | 0.55
CNc1ccc(Cl)cc1C(N)=O | 92.1 | -0.5
COC(=O)c1cc(=O)n2c(c1C(=O)c1cccs1)SCC2 | -2.35 | -1.05
CCc1ccc(N2C(=O)NC(=O)/C(=C\c3ccc(OC(C)C(=O)O)cc3)C2=O)cc1 (centres undefined) | -0.035 | /
O=C(CCCSc1nc2sc3c(c2c(=O)[nH]1)CCCC3)NCCCO | -0.315 | /
CC(C)C(NC(=O)Cc1cccc2ccccc12)C(=O)N1CCN(c2ncccn2)CC1 (centres undefined) | / | 1.35
N#CC(C#N)=Cc1ccc(O)c(Cl)c1 | -5.42* | -0.8
Fc1ccc(C=Nc2ccc3c(c2)OCO3)cc1 | / | 1.3
Fc1ccc(-c2cc(-c3nnco3)[nH]n2)cc1 | / | -0.05
CS(=O)(=O)N1CCN(c2ccnc3cc(Cl)ccc23)CC1 | 5.92 | 0.6
CSc1sc(C(=O)NNC(=O)CCn2cc([N+](=O)[O-])nc2C)c2c1C1(CCC2)SCCS1 | -1.3 | /
COC(=O)C1=CNC=C(C(=O)OC)C1c1ccc(Cl)cc1 | / | -0.25
Cc1cc2ncc(C(N)=O)cn2n1 | 0.48 | -1.2
S=C1NCN(C2CCCC2)CN1 | 0.245 | 0.6
CC(C)COc1ccc2[nH]c3c(c2c1)CCC3 | 12.5 | 1.2
Cc1cnc(C(=O)Nc2ccc(S(=O)(=O)NC(C)C)cc2)cn1 | / | -0.9
O=C(CN1CCCCC1)N1N=C2c3ccccc3CCC2C1c1ccc(F)cc1 (centres undefined) | 0.25 | 0.4
CCN1CN(Cc2ccccc2)CNC1=S | 0.075 | 0.05
CCc1ccc(NC(=O)CS(=O)(=O)c2ccc(Cl)cc2)cc1 | 0.385 | -0.6
COc1ccccc1C1CC(c2ccc(C)cc2)=NN1C(=O)CCC(=O)O (centres undefined) | -0.37 | /
Cc1cc(-c2onc(C)c2COC(=O)NC2CCN(Cc3ccc(OC(C)C)cc3)C2)no1 (centres undefined) | -0.065 | /
Cc1ccc(C(=O)Oc2ccc(/C=N/NC(N)=O)cc2)cc1 | / | 0.1
CCN1CCN(Cc2c(O)ccc3c(=O)c(-c4ccccc4Cl)coc23)CC1 | 5.72 | -0.6
O=C(c1c[nH]c(C(=O)C(Cl)(Cl)Cl)c1)c1ccc(F)cc1Cl | -0.6 | /
O=C1CC(=O)CC(c2cccc(C(F)(F)F)c2)C1 | -0.78 | -0.25
CC(Oc1ncnc2ccccc12)C(=O)Nc1ccccc1F (centres undefined) | / | -0.1
CCCOc1ccc(-c2nc(=S)[nH][nH]2)cc1 | 0.145 | -1.05
O=C(Nc1cccnc1)c1cc(=O)c2ccccc2o1 | -1.55 | 0.05
COC(=O)c1cc(Nc2nc(C)nc3sc(C)c(C)c23)cc(C(=O)OC)c1 | -0.04 | /
N#C/C(=C\c1ccc(Cl)cc1Cl)C(N)=S | -0.16 | /
Cc1ccc(-c2n[nH]c(=O)c3ccccc23)cc1S(=O)(=O)N(C)C | 0.13 | /
Cc1cc(C)cc(N2C(=O)CS(=O)(=O)C2c2cccc(Br)c2)c1 (centres undefined) | 0.115 | /
CSc1ncccc1C(=O)NC1(O)C(=O)c2ccccc2C1=O | -1.85 | -1.25
CCC1CCCCN1C(=O)Cn1c(C(=O)OC)cc2sccc21 (centres undefined) | 0.2 | -0.45
Cc1ccc(S(=O)(=O)c2nc(C)oc2NCc2ccccc2)cc1 | 0.255 | /
Cc1nn(C)c(Oc2ccccc2)c1CCNC(=O)c1cccc(Cl)c1 | -0.075 | /
O=c1[nH]nc(-c2nnc3n2-c2ccccc2SC3)c2ccccc12 | / | 0.3
CN(C)CCCNc1nc(-c2ccc(Cl)cc2)nc2ccccc12 | 1.66 | /
O=C(OCC(=O)c1ccc[nH]1)c1ccc(S(=O)(=O)N2CCCCC2)cc1 | / | 0.15
O=C(Nc1ccc(-c2nc3ccccc3[nH]2)cc1)C1=COCCO1 | 0.79 | 0
CC(C)(C)CC(C)(C)NC(=O)C1CCCCC1 | -0.03 | 0.95
Cc1cc(C)nc(NS(=O)(=O)c2ccc(NC(=O)CSc3nnc(-c4ccccc4)c(-c4ccccc4)n3)cc2)n1 | -0.225 | /
C=CCn1c(SCC(=O)c2cccs2)nnc1-c1cccc(OC)c1 | -0.475 | /
Cc1nnsc1C(=O)N(Cc1ccccc1)C(C)C | 0.525 | -0.05
COc1ccccc1C(=O)N1CCc2ccccc2C1 | -0.06 | -0.85
COc1ccc(N2C(=O)/C(=C/c3ccc(OCC(=O)O)c(OC)c3)C(=O)NC2=S)cc1 | -0.985 | /
CCOC(=O)c1cc(-c2ccccc2)n(CC(=O)NC(C)(C)C)c1C | -0.555 | 1.5
COc1cccc(CN(C)C(=O)C2CC(=O)N(CCc3ccccc3)C2)c1 (centres undefined) | / | -0.85
O=C(Oc1ccccc1)c1csc(C2COc3ccccc3O2)n1 (centres undefined) | 0.04 | 0.75
Cc1cc(-c2csc(-c3cccnc3)n2)c(C)n1C | / | -0.5
CC(=O)Nc1sccc1C#N | 0.05 | -0.6
Cc1nc2scc(-c3ccccc3)c2c(=O)n1/N=C/N(C)C | / | -0.15
Cc1ccccc1-n1c(=S)sc2c1nc(SCc1nc3ccccc3[nH]1)n1c3ccccc3nc21 | -0.045 | /
O=C(Nc1nnc(COc2ccc(Cl)cc2)s1)c1cccc(S(=O)(=O)N2CCOCC2)c1 | -0.065 | /
N/N=C(/C(=N/N)c1ccccc1)c1ccccc1 | / | -0.05
COc1ccc(Cn2ccn(Cc3ccccc3)c(=O)c2=O)cc1 | 5.01 | -0.8
O=C(CN1CCCCCCC1)Nc1ccc2c(c1)OCO2 | / | -0.65
COc1cc(C2C(C(=O)OCCOc3ccccc3)=C(C)NC3=C2C(=O)CC(c2ccccc2)C3)ccc1O (centres undefined) | 4.39 | /
O=C(N/N=C/C1=C(Sc2nc3ccccc3o2)CCCC1)c1ccncc1 | / | -2.15
Cc1cc(C)c2c(c1)c(-c1ccccc1)c(-c1ccccc1)n2CC(O)CN1C(=O)c2ccccc2S1(=O)=O (centres undefined) | 1.29 | /

The closing four entries of the section above are carried over, then new ones follow.
SMILES | Ba CapD inh | AID504770
O=C(CN1CCCCCCC1)Nc1ccc2c(c1)OCO2 | / | -0.65
COc1cc(C2C(C(=O)OCCOc3ccccc3)=C(C)NC3=C2C(=O)CC(c2ccccc2)C3)ccc1O (centres undefined) | 4.39 | /
O=C(N/N=C/C1=C(Sc2nc3ccccc3o2)CCCC1)c1ccncc1 | / | -2.15
Cc1cc(C)c2c(c1)c(-c1ccccc1)c(-c1ccccc1)n2CC(O)CN1C(=O)c2ccccc2S1(=O)=O (centres undefined) | 1.29 | /
Cc1nc2c(C)cccn2c1C(Nc1ccc(F)cc1)c1ccccc1 (centres undefined) | 0.655 | -0.35
COC(=O)c1c[nH]c(=S)n1C | -0.05 | 1.25
Cc1cc(-c2nc3ncccc3o2)ccc1NC(=O)c1ccccc1 | 27.6 | -1.2
Cc1ccc(S(=O)(=O)/N=C(\N)Nc2nc3ccccc3o2)cc1 | / | -0.15
O=C(c1ccc(Cl)cc1)N1N=C(C(F)(F)F)CC1(O)c1ccncc1 (centres undefined) | -0.09 | /
Cc1ccc(S(=O)(=O)N2CCC(O)(c3cccc(C(F)(F)F)c3)CC2)cc1[N+](=O)[O-] | 0.405 | /
CC(=O)Nc1nc(-c2ccccc2)cs1 | i | -0.3
Cc1ccc(SC(C)C(=O)NCc2ccncc2)cc1 (centres undefined) | 0.2 | -0.5
C=CCN(Cc1nc(-c2ccc(C)cc2)no1)C(=O)C1CCCCC1 | / | -0.65
CC(=O)Nc1c(C(=O)N2CCN(C(=O)c3ccco3)CC2)oc2ccccc12 | -0.98 | 1.75
COc1ccc(-c2csc(NC(=O)Cc3ccccc3)n2)cc1OC | -0.395 | -0.45
N#Cc1ccc(Oc2ccc(N3C(=O)C4CCCCC4C3=O)cc2)c([N+](=O)[O-])c1 (centres undefined) | -0.92 | /
Oc1c(/C=N/N2CCCCC2)sc2ccccc12 | -2.99 | /
COC(=O)c1cc(S(=O)(=O)Nc2ccc(C(C)C)cc2)c[nH]1 | -1.12 | -1.95
Cc1ccc2c(c1)C(O)(C(=O)NC(N)=O)C(=O)N2 (centres undefined) | / | 0.2
O=C(c1cccs1)N1N=C(c2ccccc2)CC1c1ccccc1Cl (centres undefined) | 1.23 | /
CNCCNS(=O)(=O)c1ccc(N2C(=O)CC3(CCCC3)C2=O)c(Cl)c1 | 0.11 | -0.55
COc1ccc2cc3cc(C(=O)N(C)c4cccc(C(F)(F)F)c4)oc3nc2c1 | 0.075 | -2.8
O=C(NNC(=O)c1csc(Cn2cnc(Cl)c2Cl)n1)OC/C=C/COCc1ccccc1 | -0.495 | /
CCOc1ccc(CCNC(=O)c2ccccc2-c2ccccc2)cc1 | -0.985 | /
Clc1ccc(Cn2cccn2)cn1 | -0.24 | 1.15
Cc1ccc2nc(-c3ccc(NC(=O)c4sc5ccccc5c4Cl)cc3)sc2c1 | 0.05 | /
NC(=O)c1cnn(Cc2ccccc2)c1N | / | -0.3
CCOc1ccc(NC2=CC(=O)C=CC2=O)cc1 | -0.095 | 0.9
CCOC(=O)c1cccc(Nc2ncnc3ccccc23)c1 | 3.33 | 0.15
CCCCn1c(=O)nc2n(-c3cccc(Cl)c3)c3ccccc3cc-2c1=O | 0.37 | /
COc1nc(Oc2ccc(/C=N/O)cc2)nc(N(C)C)n1 | -1.19 | 0.35
CCC1CCCCN1CC(O)COCc1cccc(OC)c1 (centres undefined) | / | -2.05
CCn1c(=O)c(=O)[nH]c2c(=O)oc3ccc(S(=O)(=O)Nc4ccc(OC)cc4)cc3c21 | 5.79 | -0.4
O=C(COc1ccc2c3c(c(=O)oc2c1)CCCC3)Nc1cccc(Br)c1 | 5.95 | -0.25
CC(C)(C)C(O)CN1CCCC1 (centres undefined) | -1.06 | -0.25
CCC(CC)c1nn2cc(-c3ccc(C)c(C)c3)nc2s1 | -1.29 | -0.65
COc1cc2c(cc1OC)C(CC#N)N(S(=O)(=O)c1ccc3c(c1)CN(C(=O)C(F)(F)F)CC3)CC2 (centres undefined) | 0.775 | /
OC(CSc1nc(-c2ccccc2)ns1)C(F)(F)F (centres undefined) | -1.15 | 0.05
Cc1cc(C(F)(F)F)c(C#N)c(SCC(=O)NC(C)C23CC4CC(CC(C4)C2)C3)n1 (centres undefined) | 1.13 | /
NC(=S)N=Nc1c(O)[nH]c2ccccc12 | -2.22 | -0.5
N#CCCSc1nnc(-c2ccc(Cl)cc2)o1 | / | -0.55
COc1ccc2oc(=O)c(C(=O)OCCN3CCN(S(=O)(=O)c4ccccc4)CC3)cc2c1 | / | -0.15
C/C(=C\c1ccccc1[N+](=O)[O-])[N+](=O)[O-] | -1.44 | /
On1c2c(c3c4nonc4ccc31)CCCC2 | / | -2.05
COc1ccc(C)cc1-n1nnnc1SC(C)C(=O)NCc1ccco1 (centres undefined) | / | 1.1
CCOC(=O)c1c(C)[nH]c(C(=O)COc2ccccc2OCC)c1C | / | 0.3
COc1ccc(-n2c(=O)[nH]c3ccccc3c2=O)cc1OC | -0.485 | -2.45
COc1ccc(/C=C2/SC(=O)N(CC(=O)Nc3ccc(C)c(C)c3)C2=O)cc1OC | -0.06 | /

Looked up above:
AID504770, `N#CCCSc1nnc(-c2ccc(Cl)cc2)o1` stands at -0.55
AID504770, `COc1ccc2oc(=O)c(C(=O)OCCN3CCN(S(=O)(=O)c4ccccc4)CC3)cc2c1` stands at -0.15

The order is random (roughly 0.37% active in at least one column).
